# Screening results (PubChem BioAssay)
# HNF4A DNA FP = change in binding of human HNF4 alpha to DNA; HNF4a-FITC DNA binding, fluorescence polarization, 1 h; activity change, % at 10 µM; 0.3% of 360,000 active; AID 1224865; in the data active = activity change above about 30%, passing the limit was not always enough;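 also: controls were the assay level and a saturating level of protein; the project sought stronger binding though the title names inhibitors; some compounds called inactive have numbers as strong as hits; positive values seem to mean higher polarization but the record does not say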
# Target sequence (P41235 whole entry, looked up): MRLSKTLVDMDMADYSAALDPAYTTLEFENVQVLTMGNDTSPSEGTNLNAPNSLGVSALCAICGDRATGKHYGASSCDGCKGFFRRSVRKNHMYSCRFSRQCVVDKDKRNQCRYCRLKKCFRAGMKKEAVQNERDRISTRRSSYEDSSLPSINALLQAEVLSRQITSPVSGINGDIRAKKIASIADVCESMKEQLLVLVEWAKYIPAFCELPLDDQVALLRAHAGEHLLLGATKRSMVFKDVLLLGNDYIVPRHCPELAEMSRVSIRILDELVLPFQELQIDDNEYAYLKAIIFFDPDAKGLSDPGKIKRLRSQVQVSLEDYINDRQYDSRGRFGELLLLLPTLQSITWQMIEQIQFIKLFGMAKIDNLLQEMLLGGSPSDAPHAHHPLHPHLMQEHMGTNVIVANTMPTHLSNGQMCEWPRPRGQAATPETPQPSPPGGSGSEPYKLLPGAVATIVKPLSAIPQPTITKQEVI
# Ecoli growth = E. coli growth inhibition; AID 1053175; Escherichia coli growth, OD600, 23 h; hits give low values; 0.21% of 330,000 active; OD600 absorbance (test concentration not listed);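 active = OD600 absorbance below the run mean of sample wells minus 3.6 SD, in any replicate, cut at about 0.56 in these data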;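 also: stock transfer was 300 nL into about 60 µL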
# Beta2AR agonist = activates human beta-2 adrenergic receptor causing internalization; P07550; response, % (no concentration beside the values); Am2.2-beta2AR cells, FAP receptor internalization, flow cytometry; reference of the scale not given here; 0.43% of 340,000 active; AID 504454;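 active = response above a set limit, near 3 SD of response in nonfluorescent compounds, cut at about 42% in these data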;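 also: stock transfer was 100 nL into about 11 µL; a reference agonist was the positive control; negative values mostly stem from fluorescent compounds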
# Target sequence (P07550 whole entry, looked up): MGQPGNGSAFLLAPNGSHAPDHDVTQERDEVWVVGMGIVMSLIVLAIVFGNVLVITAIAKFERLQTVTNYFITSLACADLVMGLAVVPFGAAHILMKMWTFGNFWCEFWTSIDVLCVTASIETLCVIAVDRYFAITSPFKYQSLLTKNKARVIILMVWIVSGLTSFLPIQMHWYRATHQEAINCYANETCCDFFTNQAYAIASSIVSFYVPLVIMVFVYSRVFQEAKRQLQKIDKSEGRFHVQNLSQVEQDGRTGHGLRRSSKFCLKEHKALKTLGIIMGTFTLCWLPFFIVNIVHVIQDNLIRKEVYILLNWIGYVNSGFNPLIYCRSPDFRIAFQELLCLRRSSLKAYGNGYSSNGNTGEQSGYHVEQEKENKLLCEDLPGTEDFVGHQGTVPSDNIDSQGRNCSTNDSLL
# UCH37 inh = human UCH37 deubiquitinating enzyme inhibition. Q9Y5K5. purified proteasome/UCH37, Ub-AMC cleavage fluorescence. AID 588478. inhibition, % (test concentration not listed). 0.33% of 330,000 active;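 active = mean of two replicates above 20%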;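 also: 0% = compound-free wells with enzyme and 100% = wells lacking proteasome; stock transfer was 100 nL into about 20 µL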
#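 assay system = human UCH37 enzyme supplied as purified proteasome complex | amount = proteasome at 0.15 nM in the dispensed enzyme solution | schedule = 30 min compound-proteasome preincubation then 25 min substrate reaction, room temperature | measured by = fluorescence, ex 355 nm, em 460 nm | benchmarks = no-proteasome wells (full inhibition) and compound-free wells (no inhibition)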
# ALR H2O2 inh = human ALR oxidase inhibition via reduced H2O2 | purified ALR, DTT oxidation, H2O2 HRP-luminol luminescence | P55789 | 3.8% of 290,000 active | AID 485317 | inhibition, % (no concentration beside the values);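 active = mean and each replicate at 75% or more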;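 also: stock transfer was 7.5 nL into about 7.5 µL; 0% = neutral wells and 100% = wells with inactivated enzyme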
# Target sequence (P55789 whole entry, looked up): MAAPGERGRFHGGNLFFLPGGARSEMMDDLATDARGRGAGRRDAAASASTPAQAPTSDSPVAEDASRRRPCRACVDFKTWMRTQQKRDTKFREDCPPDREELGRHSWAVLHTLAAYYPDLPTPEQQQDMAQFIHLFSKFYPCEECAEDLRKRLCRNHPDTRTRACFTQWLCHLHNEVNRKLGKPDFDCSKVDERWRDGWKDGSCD
# rRNA inh HTS = inhibits bacterial ribosomal RNA function over humanized ribosomes; E. coli WT GFP vs humanized-ribosome RFP mutants, fluorescence, 24 h; hits give low values; DMSO median 0, no signal -100; GFP signal change (wild-type ribosome), % (no concentration beside the values); 1.6% of 350,000 active; AID 720706;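 active = significant combined selectivity score with lowered wild-type GFP, culture density cut under 30%, mutant RFP and density less affected; inactive = any of these conditions unmet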; also: one replicate is shown; some compounds called inactive have numbers as strong as hits
# FGF22 binding = shifts melting point of recombinant human FGF22 | Q9HCT0 | recombinant FGF22 thermal shift, SYPRO orange fluorescence; percent of sucrose octasulfate shift, DMSO zero | calls only at 9.99 µM | 1.5% of 340,000 active;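 active = melting point raised past a set limit in the mean and every replicate; three in four hits are not shown here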
# rRNA inh HTS OD600 = recorded beside rRNA inh HTS, whose call it bears; OD600 change, %; measured here: OD600 growth;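 optical density of the mix in the first replicate; 0 = DMSO median and -100 = no signal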
# rRNA inh HTS RFP = also measured in rRNA inh HTS; calls as there; RFP signal change, %; measured here: RFP humanized mutant strains;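 first replicate; 0 = DMSO median and -100 = no signal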
# Starred values were filed as active, the others as inactive; i = inactive; nt = no result given; & = joins results of further samples. Not all compounds are listed; count on the stated rates, not on these rows.
SMILES,HNF4A DNA FP,Ecoli growth,Beta2AR agonist,UCH37 inh,ALR H2O2 inh,rRNA inh HTS,rRNA inh HTS OD600,rRNA inh HTS RFP,FGF22 binding
CC(=O)NC(Cc1c[nH]c2ccccc12)C(=O)OCC(=O)N1CCCCCC1 (stereo unspecified),1.4,0.71,19,-0.3,-2,14,8,2.9,i
COc1cc(OC)c(NC(=O)CC2SC(N)=NC2=O)cc1Cl (stereo unspecified),3.9,nt,nt,nt,nt,9,11,2.0,i
CCC(C(=O)NC1CCCCCC1)c1ccccc1 (stereo unspecified),3.1,0.66,0,2.8,1,-12,-6,0.3,i
CC(C)c1ccc(OCC(=O)Nc2ccccc2C(=O)N2CCOCC2)cc1,7.5,0.66,-1,-0.5,3,-1,-3,-0.2,i
CCOc1ccc(N2C(=O)CC(NNc3nc4ccccc4s3)C2=O)cc1 (stereo unspecified),-0.6,0.67,2,1.7,nt,10,5,1.7,i
COC(=O)C(NC(=O)COc1ccccc1)(Nc1nc2c(s1)CCCC2)C(F)(F)F (stereo unspecified),3.9,0.73,-2,1.9,nt,nt,nt,nt,nt
CN(c1cccc(F)c1)c1cc2c(c3c1ccn3C)C1CCC2O1 (stereo unspecified),-5.5,nt,nt,nt,nt,1,9,5.9,i
COc1ccc(S(=O)(=O)N2CCC(C(=O)NCCOc3ccccc3F)CC2)cc1OC,-3.1,0.62,-5,2.2,nt,-2,4,2.7,i
CCOC(=O)C(C)n1cnc2c(nnn2-c2ccc(F)cc2)c1=O (stereo unspecified),0.3,0.68,-2,-0.1,1,nt,nt,nt,i
Cc1cc(CNC[C@H]2O[C@@H](n3cnc4c(N)ncnc43)[C@H](O)[C@@H]2O)no1,-0.5,nt,nt,nt,nt,7,-1,-2.3,i
COc1ccc(S(=O)(=O)N2CC(C)N(C(=O)N3CCOCC3)C2)cc1 (stereo unspecified),4.0,0.64,-9,0.5,1,9,8,1.2,i
NC(=S)N/N=C/c1ccccc1OC(=O)/C=C/c1ccccc1,3.5,nt,7,nt,2,-23,-31,-2.1,i
C=CCOC(=O)C1=C[C@H](c2coc3ccccc3c2=O)[C@@H](CCCO)[C@H](OCC)O1,-0.3,nt,9,3.3,nt,-6,-2,-1.4,i
COC(=O)c1sccc1-c1ccc(C(=O)Nc2cccnc2)o1,-3.6,0.7,1,-9.4,-6,nt,nt,nt,nt
CCOC(=O)c1c(NC(=O)CN2C(=O)NC3(CCCC3)C2=O)sc(C)c1CC,-5.7,0.63,1,3.4,2,1,5,-2.0,i
CN(C)C(=O)OCc1c(-c2ccccc2)ncc2ccccc12,nt,0.71,-17,0.1,13,-16,-10,-13,i
CCCCCc1nnc(NS(C)(=O)=O)s1,1.6,0.67,1,-1.8,-1,nt,nt,nt,nt
CCOc1oc(-c2ccc(OC)cc2)nc1C(F)(F)F,-1.6,0.7,-7,1.2,-8,nt,nt,nt,nt
CCOC(=O)c1c(C)c(C(=O)N2CCN(c3ccccc3)CC2)c(C)n1C,2.7,0.69,8,3.9,73,-16,-19,-1.3,i
CC(C)CC1NC(=O)C(CC(C)C)N(CO)C1=O (stereo unspecified),-5.3,0.64,3,0.0,nt,20,14,3.1,i

# Ordered by value in UCH37 inh (lowest first): 3 from the list above.
SMILES	UCH37 inh
CN(C)C(=O)OCc1c(-c2ccccc2)ncc2ccccc12	0.1
CCOc1oc(-c2ccc(OC)cc2)nc1C(F)(F)F	1.2
CCC(C(=O)NC1CCCCCC1)c1ccccc1 (stereo unspecified)	2.8

# Further compounds follow:
SMILES,HNF4A DNA FP,Ecoli growth,Beta2AR agonist,UCH37 inh,ALR H2O2 inh,rRNA inh HTS,rRNA inh HTS OD600,rRNA inh HTS RFP,FGF22 binding
O=C(CN1C(=O)NC2(CCCC2)C1=O)Nc1ccc(OC(F)(F)F)cc1,1.7,0.68,3,-0.5,nt,-1,-4,0.4,i
CN(C)/C=C1\C=C(c2ccccc2)OC1=O,-2.2,0.69,2,16,-9,nt,nt,nt,nt
O=C(O)C/C(=C\c1ccc(Cl)cc1)c1nc2ccccc2o1,-1.8,0.68,4,3.4,4,-9,-5,-2.5,i
CCC(C)NC(=O)c1ccc(C)c(NC(=O)C2=C(C)OCCS2)c1 (stereo unspecified),-0.9,0.69,-3,6.1,-6,8,18,-6.2,i
CC(C)c1ccc(CNc2c([N+](=O)[O-])c(=O)oc3ccccc23)cc1,0.4,0.7,2,3.0,-2,-4,-5,-3.5,i
COc1cc2cc(CN(Cc3cccs3)C(=S)Nc3ccccc3)c(=O)[nH]c2cc1OC,-1.3,0.75,8,-15,-4,nt,nt,nt,nt
CC1(C)CN(c2ccc(C(=O)c3ccccc3)cc2)C1=O,-4.4,0.7,-2,-0.1,-3,15,11,1.3,i
Cc1ccc(SCc2cc(=O)[nH]c(N3CCN(Cc4ccc5c(c4)OCO5)CC3)n2)cc1,-0.8,0.78,7,4.2,2,nt,nt,nt,nt
Fc1ccc(-c2csc3[n+]2CCS3)cc1,-0.4,0.68,35,0.1,-10,nt,nt,nt,nt
Cc1cc(C(=O)NCC(=O)Nc2ccc(F)c(F)c2)c(C)o1,2.1,0.65,-1,-1.3,0,-6,0,3.5,i
O=C(CSc1ccc2nnc(-c3ccncc3)n2n1)Nc1ccc2c(c1)OCO2,-1.3,0.69,-1,-2.0,20,5,10,-0.9,i
CN(CC(=O)Nc1ccccc1Br)C(=O)c1n[nH]c2ccccc12,0.1,0.67,-2,-0.2,nt,0,5,2.4,i
CC(=O)C1(C)OC(N)=C(C#N)C(c2ccccc2)C1(C#N)C#N (stereo unspecified),4.1,0.73,-1,-1.9,-12,nt,nt,nt,nt
Cc1ccc(S(=O)(=O)NCCC2=CCCCC2)cc1C(N)=O,4.6,0.7,3,7.5,-4,nt,nt,nt,i
Cc1c(NC(=O)OCCSc2nc(N(C)C)nc(N(C)C)n2)sc(=S)n1C,2.7,0.68,1,2.3,16,nt,nt,nt,nt
Cc1cccc(COc2coc(CN3CCN(C(=O)c4ccco4)CC3)cc2=O)c1,-1.1,0.7,3,2.4,-2,9,4,-0.9,i
COc1ccc(/C=C2/SC(=S)N(CC(=O)O)C2=O)cc1OCc1ccc(Cl)cc1,-2.4,0.78,-5,18,88*,-20,-22,2.5,i
COc1ccccc1-c1nc(-c2ccc(C(=O)O)cc2)no1,5.8,0.66,-4,0.5,16,-16,-19,-4.0,i
COc1cc(/C=N/N2CCN(c3ccccc3OC)CC2)ccc1OC(C)=O,-5.6,nt,1,nt,56,11,-7,-0.4,i
Cc1ccc(NS(=O)(=O)c2cc(C(=O)N3CCOCC3)ccc2C)cc1C,-2.8,0.79,2,3.1,-1,nt,nt,nt,nt
COc1ccc2c(c1)[n+](=O)c(C(C)=O)c(C)n2[O-],0.4,0.69,1,-13,-12,nt,nt,nt,nt
CS(=O)(=O)Nc1ccccc1C(=O)NCCSc1ccccc1,0.9,0.67,0,-27,-5,-22*,-13*,-4.1*,i
O=C(NCC1CCCO1)c1cc2ccccc2nc1Cl (stereo unspecified),1.7,0.64,4,1.0,-4,4,1,0.6,i
COC(=O)c1ccccc1NC(=O)c1ccc2c(c1)OCCCO2,0.3,0.73,-1,2.9,8,-7,-5,1.9,i
Cc1coc2cc3oc(=O)c(CCC(=O)NCCCN4CCCC4=O)c(C)c3cc12,1.6,0.72,-6,-49,-3,-14,-4,-0.5,i
Nc1nc(-c2cccs2)c(CC(=O)O)s1,0.8,0.65,3,1.7,28,18,17,5.8,i
CC(C)C(=O)Nc1ncc(C(F)(F)F)cc1Cl,-1.3,0.67,2,0.9,3,nt,nt,nt,nt
O=C(Nc1ccc2oc(-c3ccncc3)nc2c1)c1ccc([N+](=O)[O-])o1,-2.6,0.6,13,2.4,nt,0,14,-0.1,i
C[C@H](CO)N1C[C@H](C)[C@@H](CN(C)S(=O)(=O)c2cccs2)Oc2c(NS(=O)(=O)c3ccc(F)cc3)cccc2C1=O,1.9,0.71,-3,0.6,nt,-11&-4,-12&-5,0.9&2.2,i
O=C(COC(=O)C1CC2CCCC(C1)C2=O)NC1CCCCC1 (stereo unspecified),2.0,0.7,-4,-0.1,4,15,11,2.2,i
COc1cccc(C2(O)CCN(C(=O)C3CCC3)CC2)c1,-0.1,0.73,2,-0.8,-4,nt,nt,nt,nt
Brc1ccc([C@H]2C=C[C@H]3CCCN4CC[C@H]2[C@@H]3[C@]42CO2)cc1,7.0,nt,nt,nt,nt,-32,-64,-1.5,i
CCOC(=O)C1=C(C)NC2=C(C(=O)CC(C)(C)C2)C1c1ccsc1 (stereo unspecified),1.9,0.67,4,-103,-8,nt,nt,nt,nt
CCOC(=O)N1CCN(C2CCCN(C(=O)c3cccc(Cl)c3)C2)CC1 (stereo unspecified),3.2,0.71,6,1.0,2,3,10,1.3,i
CCN(CC)S(=O)(=O)c1ccc(N/N=C/c2ccc(OC)c(OC)c2OC)nc1,-1.6,nt,6,nt,7,17,28,-3.7,i
Cc1ncc(C[n+]2csc(CCOC(=O)C34CC5CC(CC(C5)C3)C4)c2C)c(N)n1,-0.6,0.65,10,1.5,-1,-10,-13,-0.8,i
O=C(c1ccccc1)c1ccc2nc(-c3ccc(NC(=O)c4ccccc4Br)cc3)[nH]c2c1,1.5,0.7,5,-19,-1,-17*,-8.5*,4.3*,nt
O=C(NCCC1CCCCN1S(=O)(=O)c1ccc(Cl)cc1)C(=O)NCc1ccncc1 (stereo unspecified),2.6,0.69,0,2.9,-4,-8,-11,1.0,i
Cc1noc(C)c1CSCC(=O)OCc1nc2ccccc2c(=O)n1CC#N,3.5,0.75,7,-0.8,-17,nt,nt,nt,nt
Brc1ccccc1-c1nnc(SCc2nc3ccccc3s2)o1,2.8,0.7,-7,-29,96*,-23,-31,-19,i
CSC1=NSC2=NC(=O)/C(=C\c3ccc(OC(=O)c4ccco4)cc3)C(=N)N12,2.8,0.7,43*,11,9,-1,-5,3.6,i
COc1ccccc1CN1CC(C(=O)N(C)Cc2nc(C)cs2)CCC1=O (stereo unspecified),-1.3,nt,1,nt,-14,9,9,1.7,i
COc1ccc(S(=O)(=O)Nc2ccc(NC(C)=O)cc2)cc1[N+](=O)[O-],-0.7,0.7,12,3.3,-3,2,-3,-11,i
O=C(Nc1ccccc1)c1cccc2c(-c3cccnc3)coc12,0.2,nt,nt,nt,nt,-5,12,1.6,i
CCCCN(C(=O)c1oc2ccc(OCC)cc2c1C)c1c(N)n(CC(C)C)c(=O)[nH]c1=O,-0.3,0.67,-18,-13,-10,-3,-9,5.4,i
CCN(CC)S(=O)(=O)c1ccc(NC(=O)CSc2nnc(-c3cccc(OC)c3)n2C)cc1,1.7,0.7,-4,0.2,-17,8,14,-6.2,i
COc1ccc(NS(=O)(=O)c2cc(NC(=O)c3cnc(C)cn3)ccc2N2CCCCC2)cc1,-0.6,0.7,-5,5.5,-1,nt,nt,nt,nt
Cc1cccc(CSC2=NCCN2C(=O)C2CC2)c1,-0.1,0.71,-19,7.6,8,nt,nt,nt,nt
Cc1nnc(NC2=NCCC2)o1,-0.1,0.73,-4,3.9,-26,nt,nt,nt,nt
CC(=O)N1CCc2cc(S(=O)(=O)N3CC(C)CC(C)C3)ccc21 (stereo unspecified),-1.1,0.66,2,5.2,-1,0,-1,-0.4,i
O=C(NC1CCCC1)c1ccc(S(=O)(=O)N2CCOCC2)cc1,1.6,0.67,4,2.5,-3,nt,nt,nt,nt
COc1ccc(NC(=O)C2(C)CCN2Cc2csc3ccccc23)cc1OC (stereo unspecified),3.3,nt,nt,nt,nt,-47,-69,-9.7,i
